Assay outcomes: PubChem BioAssay, several laboratories
HNF4A DNA FP: change in binding of human HNF4 alpha to DNA; P41235; HNF4a-FITC DNA binding, fluorescence polarization, 1 h; activity change, % at 10 µM; 360,000 compounds, 0.3% hits; AID 1224865; in the data active = activity change above about 30%, passing the limit was not always enough;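 note: controls were the assay level and a saturating level of protein; the project sought stronger binding though the title names inhibitors; some compounds called inactive have numbers as strong as hits; positive values seem to mean higher polarization but the record does not say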
B2AR ag: agonists of human beta-2 adrenergic receptor inducing internalization | P07550 | response, % (test concentration not listed) | Am2.2-beta2AR cells, FAP receptor internalization, flow cytometry; reference of the scale not given here | 340,000 compounds, 0.43% hits;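 active = response above a set limit, near 3 SD of response in nonfluorescent compounds, cut at about 42% in these data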;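 note: stock transfer was 100 nL into about 11 µL; a reference agonist was the positive control; negative values mostly stem from fluorescent compounds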
A1 inh: inhibitors of the anti-apoptotic protein A1, read as caspase activation | MEF A1-2A-BIM cells, Caspase-Glo 3/7 luminescence, 3 h; percent of clofoctol response, vehicle zero | caspase activation, % (test concentration not listed) | 330,000 compounds, 0.066% hits | AID 2462;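 active = over half of replicate activation scores above 10%, or exactly half above 10 with the replicate mean above 10; inconclusive = replicate mean below 10 yet half the replicates above 10; inactive = over half of replicates below 10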;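 note: wells of about 30 µL received 50 nL stock; many hits fall short of the cut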
UCH37 DUB inh: inhibitors of human deubiquitinating enzyme UCH37. purified proteasome/UCH37, Ub-AMC cleavage fluorescence. inhibition, % (test concentration not listed). 330,000 compounds, 0.33% hits. AID 588478;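 active = mean of two replicates above 20%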;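 note: 0% = compound-free wells with enzyme and 100% = wells lacking proteasome; stock transfer was 100 nL into about 20 µL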
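Material: Human UCH37 enzyme supplied as purified proteasome complex | Schedule: 30 min compound-proteasome preincubation then 25 min substrate reaction, room temperature | Detection: AMC fluorescence from Ub-AMC cleavage, excitation 355 nm, emission 460 nm | Benchmarks: Wells without proteasome as full block, compound-free enzyme plus substrate as uninhibited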
LANA-H2B inh: blocks KSHV LANA binding to histone H2A/H2B; inhibition, % (concentration not given with the values); cell-free LANA-H2A/H2B peptide, fluorescence polarization; Q9QR71; 320,000 compounds, 0.6% hits; in the data active = inhibition mostly above about 10%, no sharp cut-off; inactive = mostly below about 6.7%;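 note: stock transfer was 7.5 nL into about 10 µL; 0% = median of vehicle wells and 100% = median of positive control wells; one replicate is shown; the record names a cut of 25% in any replicate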
Target sequence (Q9QR71 whole entry, looked up): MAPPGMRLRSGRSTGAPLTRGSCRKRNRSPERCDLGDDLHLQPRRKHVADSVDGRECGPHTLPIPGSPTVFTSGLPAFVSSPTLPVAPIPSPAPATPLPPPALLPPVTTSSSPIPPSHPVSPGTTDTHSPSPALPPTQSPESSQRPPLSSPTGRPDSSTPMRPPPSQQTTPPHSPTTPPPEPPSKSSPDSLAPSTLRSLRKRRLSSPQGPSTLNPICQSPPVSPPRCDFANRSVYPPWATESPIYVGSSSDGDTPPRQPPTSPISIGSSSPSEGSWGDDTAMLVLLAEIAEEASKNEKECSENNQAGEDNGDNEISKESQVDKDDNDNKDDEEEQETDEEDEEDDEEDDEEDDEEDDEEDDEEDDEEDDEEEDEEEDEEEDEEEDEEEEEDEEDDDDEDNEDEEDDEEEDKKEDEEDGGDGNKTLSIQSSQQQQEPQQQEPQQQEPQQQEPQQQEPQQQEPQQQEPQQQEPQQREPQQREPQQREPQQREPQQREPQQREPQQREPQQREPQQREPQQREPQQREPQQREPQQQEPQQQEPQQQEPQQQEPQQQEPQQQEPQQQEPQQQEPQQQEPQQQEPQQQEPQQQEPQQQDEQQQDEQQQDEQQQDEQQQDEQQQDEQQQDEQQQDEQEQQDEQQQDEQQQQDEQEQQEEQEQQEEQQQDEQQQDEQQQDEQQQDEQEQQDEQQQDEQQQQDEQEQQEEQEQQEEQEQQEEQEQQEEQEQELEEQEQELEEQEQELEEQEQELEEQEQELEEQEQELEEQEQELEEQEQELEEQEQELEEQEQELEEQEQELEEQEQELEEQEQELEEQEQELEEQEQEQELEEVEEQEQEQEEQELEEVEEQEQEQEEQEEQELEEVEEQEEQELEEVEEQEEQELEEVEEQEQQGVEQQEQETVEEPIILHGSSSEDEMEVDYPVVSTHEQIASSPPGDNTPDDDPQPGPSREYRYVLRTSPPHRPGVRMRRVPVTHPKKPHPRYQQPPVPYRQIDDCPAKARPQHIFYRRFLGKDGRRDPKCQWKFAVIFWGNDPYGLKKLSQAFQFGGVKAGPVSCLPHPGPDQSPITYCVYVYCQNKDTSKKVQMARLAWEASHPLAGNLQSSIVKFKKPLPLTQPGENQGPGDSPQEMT
Vif TR-FRET: HIV-1 Vif–A3G interaction blockers – biochemical, TR-FRET, GST-Vif 1-94, biotin-A3G peptide, dose response retest, primary screen (AID 1117319); 260,000 compounds, 0.57% hits; inhibition, %, or IC50 in µM where a hit was titrated; TR-FRET GST-Vif / biotin-A3G peptide binding; higher % means a stronger effect; test concentration not given here; strong numbers were not always called active;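 active = above the screen mean plus three standard deviations and confirmed in dose response; inconclusive = results disagree or hit not tested in dose response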;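 note: Vif residues 1-94 fused to GST binding biotinylated APOBEC3G peptide 110-148; 0% = full assay without inhibitor and 100% = GST in place of GST-Vif; retest series ran down from 100 µM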
Ecoli growth: E. coli growth inhibition; 330,000 compounds, 0.21% hits; AID 1053175; OD600 absorbance (test concentration not listed); Escherichia coli growth, OD600, 23 h; active compounds read low;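 active = OD600 absorbance below the run mean of sample wells minus 3.6 SD, in any replicate, cut at about 0.56 in these data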;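 note: stock transfer was 300 nL into about 60 µL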
* hit, by the source's call; i = inactive; ? = inconclusive; / = not tested or not shown.

SMILES | HNF4A DNA FP | B2AR ag | A1 inh | UCH37 DUB inh | LANA-H2B inh | Vif TR-FRET | Ecoli growth
COC(=O)c1cc2nc(-c3ccc(C)cc3)cc(C(F)(F)F)n2n1 | -0.8 | 9.4 | 0.1 | -7.6 | 0.6 | 4.1% | 0.671
c1ccc2c(N3CCCCC3)ncnc2c1 | -0.8 | -10.8 | -0.6 | 4.8 | 1.8 | 26.0% | 0.678
O=C(COC(=O)c1cn(-c2ccccc2)nc1-c1ccc(F)cc1)Nc1ncc(Cl)cc1Cl | 5.5 | -0.6 | -0.4 | 1.0 | 5.2 | / | 0.775
Cc1ccccc1CC1CCN(CCCNC(=O)Nc2ccccc2)CC1 | -1.6 | -3.2 | 0.3 | 0.0 | 1.8 | / | 0.677
CCOC(=O)CN(C(=O)CSc1nnc(COc2ccc(OC)cc2)n1C)c1ccccc1 | -4.0 | 3.1 | 0.8 | -1.0 | -0.2 | 0.2% | 0.675
O=C1c2ccccc2C(=O)N1CCCn1c(=O)oc2ccccc21 | 3.8 | -10.2 | 0.6 | -1.6 | 0.6 | 13.5% | 0.71
CCOc1ccc(NC(=O)CN2CCc3ccccc3C2)cc1 | -1.2 | 9.5 | 0.2 | 4.8 | -6.0 | / | 0.64
CCOc1ccccc1C(=O)Nc1cccc(-c2ccc3nncn3n2)c1 | -0.8 | -6.7 | 0.5 | -2.0 | -4.5 | -4.1% | 0.668
COc1ccc(NC(=O)c2ccccc2OCc2c(C)noc2C)cc1OC | -3.7 | 2.8 | 0.2 | 3.7 | -7.1 | / | 0.7
CCCOc1ccccc1/C=C1/C(=O)ON=C1C | 2.5 | 1.5 | 0.3 | 1.5 | -1.0 | 6.9% | 0.662
CCCS(=O)(=O)N1CCC(C(=O)NC2CCCCC2C)CC1 (stereo unspecified) | -2.1 | 0.5 | -0.3 | 2.3 | -3.2 | 23.2% | 0.765
O=C(CSc1nnc(-c2cccs2)o1)N1CCc2ccccc21 | 2.9 | -11.8 | -1.1 | -1.3 | 0.5 | -47.6% | 0.697
Cc1ccc(C)c(N2CCN(C(=O)c3cc4ccccc4oc3=O)CC2)c1 | -0.2 | -2.8 | 0.7 | 2.6 | 1.4 | 2.8% | 0.759
Cc1cs/c(=N\N=C2CCCCC2)n1Cc1ccco1 | 3.0 | 2.8 | -0.6 | / | 0.0 | 3.1% | /
Cc1ccc(NC(=O)c2ccccc2[N+](=O)[O-])nc1 | 1.2 | -3.9 | -0.1 | 3.4 | -10.8 | 26.6% | 0.661
O=C(Nc1cccc(-c2cccc(Cl)c2)c1)C1CCN(C2CCC2)CC1 | 5.3 | 11.1 | -1.3 | 6.6 | -3.1 | / | 0.649
C#CCOCCOCCOCCNc1nc(N2CCN(C(=O)CCCCCCCCCCNC(=O)[C@@H](CCSC)n3cc(CCO)nn3)CC2)nc(N2CCN(C(=O)CCCCCCCCCCNC(=O)[C@H](CCC(=O)O)n3cc(CCCCCN)nn3)CC2)n1 | 5.1 | 31.7 | -0.2 | -0.6 | -4.6 | / | /
COc1ccc(OCCNC(=O)CCCO)cc1 | 0.8 | -1.8 | -0.2 | -4.1 | 4.8 | -1.0% | 0.672
Cc1noc(C)c1COc1ccc(C(=O)OCC(=O)N2c3ccccc3NC(=O)C2(C)C)cc1 | -5.8 | 38.9 | 0.1 | 4.4 | i | 14.9µM* | 0.695
CCc1ccc(Nc2n[n+](-c3ccccc3)c(/C=C/c3ccccc3)s2)cc1 | / | / | ? | -0.5 | 3.5 | / | /

Complete entries, looked up by structure. Values in the order: HNF4A DNA FP | B2AR ag | A1 inh | UCH37 DUB inh | LANA-H2B inh | Vif TR-FRET | Ecoli growth
Shown for Cc1ccc(C)c(N2CCN(C(=O)c3cc4ccccc4oc3=O)CC2)c1 → -0.2 | -2.8 | 0.7 | 2.6 | 1.4 | 2.8% | 0.759
Shown for CCCS(=O)(=O)N1CCC(C(=O)NC2CCCCC2C)CC1 (stereo unspecified) → -2.1 | 0.5 | -0.3 | 2.3 | -3.2 | 23.2% | 0.765

(continued)
SMILES | HNF4A DNA FP | B2AR ag | A1 inh | UCH37 DUB inh | LANA-H2B inh | Vif TR-FRET | Ecoli growth
CCOC(=O)Cn1ncc(-c2ccccc2)c1N | -2.4 | 0.5 | -1.7 | -3.8 | -0.4 | 15.9% | 0.707
COCCNC(=O)CSc1ccccc1C(=O)NC1CCCc2ccccc21 (stereo unspecified) | 0.8 | 2.4 | -0.1 | -0.9 | 8.1 | 4.3% | 0.686
Cc1cc2nnc(SCC(=O)NCc3ccco3)n2c2ccccc12 | -0.9 | 11.5 | 0.2 | -0.9 | -2.2 | / | 0.719
Cn1c(SCC(=O)CC(=O)Nc2ccccc2)nnc1-c1ccc(O)cc1 | 0.1 | 3.5 | -0.2 | 0.3 | -0.8 | ? | 0.639
Cc1[nH]n(-c2ccccc2)c(=O)c1C=Nc1ccc(S(=O)(=O)Nc2nccs2)cc1 | 3.3 | 4.2 | 0.1 | 12.8 | -4.9 | 29.0% | 0.65
CCc1ccc(NC(=O)C2CCN(S(=O)(=O)c3ccc4c(c3)N(C(C)=O)CCO4)CC2)cc1 | 1.2 | -3.0 | 0.2 | 1.3 | 1.1 | -4.0% | 0.697
COc1ccc2nc(/N=C/c3c(C)[nH]n(-c4ccc(C)cc4)c3=O)sc2c1 | 0.9 | 1.2 | -4.4 | / | -3.0 | / | /
Cc1sc2nc(-c3ccccn3)[nH]c(=O)c2c1-c1ccccc1 | 1.6 | -8.2 | -2.9 | -70.1 | 1.7 | -9.9% | 0.707
Cc1ccc(NC(=O)C2Cc3ccccc3C(=O)O2)cc1 (stereo unspecified) | 0.9 | -1.4 | -0.3 | 2.5 | 3.6 | / | 0.669
Cc1ccsc1/C=N/NC(=O)CNC(=O)c1ccc(S(=O)(=O)N(C)C)cc1 | 2.5 | 0.9 | -1.1 | / | 1.1 | -8.4% | /
CC(C)C[C@H](NC(=O)OC(C)(C)C)C(=O)N[C@@H](CO)[C@H](O)[C@@H]1C[C@@H]1C(=O)NC1CC1 | -38.6 | -0.3 | -0.1 | 4.4 | -0.5 | / | /
CC(NC(=O)C(C)N1CCN(Cc2ccccc2)CC1)c1ccc(F)cc1 (stereo unspecified) | -0.1 | -0.2 | 0.6 | -3.2 | 10.0 | 0.7% | 0.69
O=C(Nc1ccc(-c2cccc(F)c2)cc1)C1CCCN(Cc2ccccn2)C1 (stereo unspecified) | -2.8 | 0.2 | 0.5 | 1.5 | -2.8 | / | 0.658
C=C(CO)C1Cc2cc(C(C)=O)ccc2O1 (stereo unspecified) | 2.1 | 12.3 | -0.3 | -0.8 | -2.7 | / | 0.731
Cc1cccc(CSc2ncc(CO)n2C)c1 | 1.2 | 4.3 | 0.2 | 0.1 | 1.7 | 1.9% | 0.726
COc1ccc(CCNC(=O)Cn2c(=O)n(CC3CCCO3)c(=O)c3cc(OC)c(OC)cc32)cc1OC (stereo unspecified) | 3.5 | -0.5 | -0.6 | 5.9 | 3.1 | -3.0% | 0.648
CCc1ccccc1Nc1nc(N)nc(CSCC(=O)c2cc(C)n(C)c2C)n1 | 2.5 | -11.1 | 0.3 | 3.1 | 1.8 | 4.7% | 0.712
Cc1cc(O)ccc1N1C(=O)c2cccc3cc([N+](=O)[O-])cc(c23)C1=O | -6.8 | -3.0 | 1.2 | 3.8 | -2.5 | 6.5% | 0.706
O=c1[nH]c(SCc2ccccc2Cl)nc2[nH]ncc12 | 1.1 | 1.7 | -1.1 | / | -1.8 | -1.0% | /
O=C(CNS(=O)(=O)c1ccc(C(=O)N2CCOCC2)cc1)N1CCOCC1 | 1.8 | -2.1 | -0.3 | 1.1 | 1.6 | -0.9% | 0.719
O=[N+]([O-])c1ccc2c(c1)C(N1CCOCC1)/C(=C/COc1ccc(F)cc1)O2 (stereo unspecified) | -2.8 | 6.3 | -0.3 | -2.0 | 1.9 | -1.1% | 0.7
O=C(O)CSc1ncnc2c1oc1ccccc12 | 0.1 | -0.9 | 0.5 | 8.0 | 8.0 | -1.9% | /
COc1ccc(N2C(=O)CCC(C(=O)O)C2c2ccc(F)cc2)cc1 (stereo unspecified) | -0.8 | 8.6 | 1.1 | 0.4 | 0.5 | 5.1% | 0.703
Cc1csc(NC(=O)CSc2nnc(C)s2)n1 | 0.0 | -0.2 | 0.7 | 3.6 | -1.0 | ? | 0.707
COc1cc(C(=O)OCC(=O)NC(=O)C2CCCCC2)ccc1OC(F)F | 2.6 | -10.7 | -1.3 | 2.1 | -2.6 | -8.0% | 0.645
O=C(NCCO)c1ccc2nc(-c3ccco3)c(-c3ccco3)nc2c1 | -16.9 | -6.4 | 1.5 | -38.8 | -2.4 | 0.88µM* | 0.642
CN(Cc1ccccc1)C(=O)c1cccc(NC(=O)Cc2cccc([N+](=O)[O-])c2)c1 | -3.0 | -11.9 | 1.6 | 3.0 | 3.8 | / | 0.584
COc1ccc(NC(=O)CSc2ccc(-c3cccnc3)nn2)c(OC)c1 | -4.1 | -8.6 | 0.0 | 1.0 | -2.7 | 3.8% | 0.668
O=C(Nc1cccc(Cl)c1Cl)c1snnc1-c1ccccc1 | 0.2 | 0.7 | -0.6 | 4.0 | -1.1 | -0.3% | 0.741
CCOC(=O)Nc1ccc(C(=O)c2ccncc2)cc1 | 3.1 | -5.2 | 0.5 | 3.9 | 1.2 | -2.8% | 0.7
Cc1occc1C(=O)NCc1cccs1 | -2.5 | 1.5 | 0.3 | -4.4 | -5.5 | 20.9% | 0.726
O=C(COC(=O)c1ccccc1Cl)Nc1ccc2[nH]c(=O)[nH]c2c1 | -1.1 | 4.3 | 0.3 | 3.7 | -2.6 | -0.1% | 0.656
Cc1cc(C(F)(F)F)c2c(=O)[nH]c(=O)n(Cc3ccccc3)c2n1 | -1.6 | 4.2 | 0.9 | 4.3 | 1.8 | -17.5% | 0.702
Cc1ccc(C(=O)CSc2nc3cc(S(=O)(=O)N4CCOCC4)ccc3o2)cc1 | 0.7 | -4.8 | -0.1 | 0.7 | 0.5 | -10.2% | 0.711
O=C(c1cnsn1)N1CCN(c2ccccn2)CC1 | -0.9 | 1.4 | 0.6 | 3.8 | 2.6 | 8.3% | 0.681
COc1ccc(NC(=O)c2cc3ccccc3cc2OC)cc1OC | 0.1 | 1.4 | 0.3 | 3.1 | 1.3 | -30.7% | 0.665
O=C(Cc1csc(Nc2nc(=S)[nH]c3ccccc23)n1)NCc1cccc(Cl)c1 | 3.0 | -2.8 | 0.0 | 3.3 | 0.0 | -1.1% | 0.752
CSc1ncccc1C(=O)OCCCC(=O)c1ccc(F)cc1 | -0.2 | 3.6 | 0.7 | 2.3 | -3.0 | / | 0.675
CC1CCCN(Cc2csc(N)n2)C1 (stereo unspecified) | 2.5 | -2.2 | 0.2 | 7.8 | 0.3 | ? | 0.699
CCOC(=O)c1c(C)[nH]c(C)c1S(=O)(=O)NCC1CCN(Cc2cccc(Cl)c2)CC1 | 5.6 | 1.1 | 1.6 | 4.6 | 5.6 | / | 0.713
Cc1nn(-c2ccccc2)c(C)c1-c1cc(C(=O)N/N=C/c2ccc(O)cc2)[nH]n1 | 3.7 | 27.4 | -0.1 | / | 3.9 | -2.2% | /
COc1ccc(NC(=O)[C@@H](NS(=O)(=O)c2cccc(Cl)c2)C(C)C)cc1S(=O)(=O)N1CCOCC1 | 2.4 | 2.8 | 0.4 | -1.6 | -4.8 | / | 0.654
O=C(O)C1C2CCC(O2)C1C(=O)NCc1ccccc1Br (stereo unspecified) | 3.7 | -3.6 | -0.8 | 6.6 | 0.8 | 2.6% | 0.727
Cc1cc([N+](=O)[O-])nn1Cc1ccc(C(=O)N/N=C/c2ccc(O)cc2O)cc1 | -1.6 | 5.0 | 0.0 | / | 5.1 | / | /
Cc1cc(/C=N/n2cnnc2)c(C)n1-c1cccc(C(=O)O)c1 | -1.0 | 3.8 | -0.5 | / | 2.8 | 7.3% | /
